Source: PubChem BioAssay (Southern Research Institute)
Mtb growth = Mycobacterium tuberculosis H37Rv growth inhibition, cell based, confirmatory dose response (AID 1949) | M. tuberculosis H37Rv growth inhibition | most inactive calls were filed without a number and no value below 0 was filed | inhibition, % at 10 µg/mL; hits with a dose series show IC50 in µg/mL | 1.6% of 100,000 active;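 active = confirmed in a dose series; inconclusive = about 50% or more but not retested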;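 also: bacteria grown 7 days with compound before Alamar blue readout; 0% = untreated bacteria and 100% = reference antibiotic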
The depositor's hits bear a star; i = inactive; ? = inconclusive. Some of the compounds tested; count on the stated rates, not on these rows.

SMILES	Mtb growth
CCOC(=O)N1CCN(C(=O)CN(c2ccc(Cl)cc2C)S(C)(=O)=O)CC1	i
CCOC(=O)N1CCN(C(=O)C(C)Oc2ccc(OC)cc2)CC1 (stereo not drawn)	2%
CN1CCN(c2ccc([N+](=O)[O-])cc2C(=O)Nc2ccccc2)CC1	i
COc1ccccc1Oc1ccc(C#N)c(C#N)c1	11%
Cc1nc2c(sc3nc4c(cc32)COC(C)(C)C4)c(=O)n1CCC(C)C	3%
O=C(CC1(O)C(=O)N(Cc2ccc(Cl)cc2)c2ccccc21)c1cccnc1 (stereo not drawn)	0%
C=CCN1C(=O)c2cccc3c(N4CCOCC4)ccc(c23)C1=O	i
CCOCC(=O)NCc1ccc(OC)cc1	4%
C=Cn1cnc2c1c(=O)n(C)c(=O)n2C	i
CCCNC(=O)c1ccccc1NC(=O)CN(c1ccc(F)cc1)S(=O)(=O)c1ccc(OC)c(OC)c1	i
COc1ccc(NC(=O)CCc2ccccc2)cc1CN1C(=O)c2ccccc2C1=O	i
COC(=O)CC1C(=O)NC2CCCCC2N1C(=O)c1ccccc1 (stereo not drawn)	i
O=c1oc(-c2ccc(F)cc2)nc2sc3c(c12)CCC3	3%
O=C(O)c1cccc(Nc2nc(-c3cccnc3)cs2)c1	i
Cc1ccccc1OC(C)c1nc(-c2ccccc2)no1 (stereo not drawn)	i
CC(C)COc1ccc(C(=S)N2CCCC2)cc1	8%
Cc1ccc(NC(=O)CCn2nc(-c3ccccc3)c3ccccc3c2=O)c(C)c1	3%
CCOC(=O)c1oc2cc(OC)ccc2c(=O)c1-c1ccccc1OC	i
COc1ccccc1-c1coc2cc(OC(=O)c3ccccc3Br)ccc2c1=O	13%
Cc1c(OC(=O)CCC2CCCC2)ccc2c(=O)c(-c3nc4ccccc4s3)coc12	i
COc1ccc(-c2nc(-c3ccccc3)c(-c3ccc(F)cc3)[nH]2)cc1OC	16%
CN(C)C(=O)CSc1cccc2cccnc12	6.3µg/mL*
CC(C)c1ccc(C(=O)N2CCN(c3ccc([N+](=O)[O-])c(N4CCOCC4)c3)CC2)cc1	i
CCN(CC)C(=O)COc1ccc2c(C)cc(=O)oc2c1C	i
CCOCCCNS(=O)(=O)c1ccc(Cl)cc1	i

(cont.)
SMILES	Mtb growth
NC(=O)c1c(NC(=O)Cc2ccc([N+](=O)[O-])cc2)sc2c1CCCCC2	i
O=C(O)CC(c1ccccc1)c1ccc2c(c1)OCO2 (stereo not drawn)	i
O=C(O)CCCC(=O)N1CCC(c2nc3ccccc3s2)CC1	3%
O=C1CC2C(=O)NCCN2C(=NC(=O)c2ccccc2)N1 (stereo not drawn)	i
Cc1cc(=O)[nH]c(SCC(=O)Nc2nc(-c3ccc(Br)cc3)cs2)n1	i
CCC(C)c1ccc(NC(=S)Nc2cc(OC)c(Cl)cc2OC)cc1 (stereo not drawn)	i
Cc1ccccc1N(CC(=O)Nc1cccc2ccccc12)S(C)(=O)=O	i
CC(=O)OCCCNC(=O)c1cc2ccccc2oc1=O	i
O=C(COc1ccc(I)cc1)Nc1ccc2c(c1)C(=O)NC2=O	2%
COc1ccc(OC)c(N(CC(=O)Nc2ccccc2C(=O)NC(C)c2ccccc2)S(C)(=O)=O)c1 (stereo not drawn)	i
Cc1ccc2c(c1)C(O)(CC(=O)c1ccc(Cl)s1)C(=O)N2 (stereo not drawn)	i
COC(=O)c1c(NC(=O)C2COc3ccccc3O2)sc2c1C(C(=O)OC)CC2 (stereo not drawn)	11%
O=C1N/C(=N/N=C/c2ccc(Cl)cc2)SC1Cc1ccc(Br)cc1 (stereo not drawn)	i
COCc1cc(C)nc2sc(C(=O)Nc3ccc(C(=O)OC)cc3)c(N)c12	i
Cc1ccccc1CSc1nc(N)cc(=O)[nH]1	0%
CC(=O)c1cccc(NC(=O)c2ccc(-c3ccccc3Cl)o2)c1	i
COc1ccc(C)cc1S(=O)(=O)N1CCC(C(N)=O)CC1	i
CC(=O)Nc1nnc(SCc2c(Cl)cccc2Cl)s1	i
c1ccc(-c2ccc(OCCNC3CCCC3)cc2)cc1	2%
CCOc1ccc(CC(=O)Nc2ccc(F)cc2)cc1OCC	i
COc1ccc(NS(=O)(=O)c2ccc3c(c2)Cc2ccccc2-3)cn1	i
O=C1CCN(c2cccc(Cl)c2)N1	?
COc1ccc(CCNC(=O)c2ccnc(C(C)(C)C)c2)cc1OC	i
CCc1c2c(nc3sc(C(=O)NCc4ccco4)c(N)c13)CC(C)(C)CC2=O	i
C=CCNc1nc2cc([N+](=O)[O-])ccc2o1	11%

4 compounds drawn at random from those above, as already listed:
SMILES	Mtb growth
O=C1N/C(=N/N=C/c2ccc(Cl)cc2)SC1Cc1ccc(Br)cc1 (stereo not drawn)	i
CC(=O)Nc1nnc(SCc2c(Cl)cccc2Cl)s1	i
O=C(O)CC(c1ccccc1)c1ccc2c(c1)OCO2 (stereo not drawn)	i
CCOc1ccc(CC(=O)Nc2ccc(F)cc2)cc1OCC	i

Nothing new here: entries from further up.
SMILES	Mtb growth
NC(=O)c1c(NC(=O)Cc2ccc([N+](=O)[O-])cc2)sc2c1CCCCC2	i
O=C(O)CC(c1ccccc1)c1ccc2c(c1)OCO2 (stereo not drawn)	i
O=C(O)CCCC(=O)N1CCC(c2nc3ccccc3s2)CC1	3%
O=C1CC2C(=O)NCCN2C(=NC(=O)c2ccccc2)N1 (stereo not drawn)	i

(continued)
SMILES	Mtb growth
CN(c1ccc(C(=O)N2CCCCC2)cc1)S(=O)(=O)c1ccccc1	i
Cc1cc(CSc2ccccc2)ccc1NC(=O)CN(c1cccc(F)c1)S(C)(=O)=O	i
COc1cccc(NC(=O)COc2ccc(N3CC(C(=O)NCC(C)C)CC3=O)cc2)c1 (stereo not drawn)	4%
Cn1c(C=O)ccc1-c1ccc(Cl)cc1	i
Cc1ccc(C(=O)Nc2ccccc2C(=O)N2CC3(C)CC2CC(C)(C)C3)cc1 (stereo not drawn)	3%
CCOc1ccc2nc(SCC(=O)c3ccc(C)s3)sc2c1	i
Cn1nc([N+](=O)[O-])nc1Oc1ccc(C(C)(C)C)cc1	<0.1µg/mL*
CCCCc1ccc(NC(=O)COc2ccc(C(=O)Nc3ccc(C)cc3C)cc2)cc1	i
O=C(Nc1cccc2ccccc12)C1c2ccccc2Oc2ccccc21	i
O=C(NCCCN=C1NS(=O)(=O)c2ccccc21)c1ccc(Cl)c(Cl)c1	i
O=C(NCc1ccco1)C1(c2ccccc2)CCCC1	i
c1cncc(-c2noc(C34CC5CC(CC(C5)C3)C4)n2)c1	0%
S=C(NCc1ccco1)N1CCN(c2ccccn2)CC1	i
CC12CC=CCC1C(=O)N(NC(=O)c1ccncc1)C2=O (stereo not drawn)	0%
CCOC(=O)c1ccc(NC(=O)CN(c2ccc(C)c(Cl)c2)S(C)(=O)=O)cc1	20%
C=CCn1c(CNC(=O)c2ccc(OC)c(OC)c2)nnc1SCC(=O)Nc1nc(C)cs1	i
COc1cc(CNS(=O)(=O)c2ccc(F)cc2)cc(OC)c1OC	i
O=C(c1ccc(Cl)c(Cl)c1)N1CCN(c2ccc([N+](=O)[O-])cc2C(F)(F)F)CC1	i
COC(=O)C(CC(C)C)NC(=O)C(Cl)Cl (stereo not drawn)	i
O=C(NC(=S)Nc1ccc(F)c(Cl)c1)C1CCCCC1	2%
CCN1C(=O)C(CC(=O)Nc2ccc(OC)cc2)N(CCc2ccc(F)cc2)C1=S (stereo not drawn)	i
COc1ccc(CSc2nnc(COc3ccccc3)n2-c2ccccc2)cc1	i
COc1ccc(CCNC(=O)c2ccccc2N)cc1	7%
CCC(C)N(C(=O)c1ccc([N+](=O)[O-])cc1Cl)C(C)CC (stereo not drawn)	0%
CCOc1cc(S(=O)(=O)N2CCCC2)ccc1Br	i

New compounds follow
SMILES	Mtb growth
COc1cccc(NC(=O)Cn2cc(C(=O)c3ccccc3F)c3ccccc32)c1	i
CC(=O)c1cccc(NC(=S)NNC(=O)c2ccco2)c1	i
COc1cc2cc(NC(C)=O)cc(NCc3ccccc3)c2cc1OC	i
Cc1cccc(C(=O)Nc2ccc(C(=O)c3ccncc3)cc2)c1	31%
CCOCCCNC(=O)CN1C(=O)c2cccc3cccc1c23	i
CN(C)C(=O)CSc1n[nH]c(-c2ccncc2)n1	i
COc1ccccc1C(=O)Nc1cc(C(F)(F)F)ccc1N1CCCCC1	i
Cc1ccc(OCCCCNC2CCCC(C)C2C)c(C)c1 (stereo not drawn)	i
O=C(Nc1ccc(Br)cc1F)c1cc2ccccc2oc1=O	34%
CC(=O)c1cc(F)c(N2CCN(C(=O)c3ccco3)CC2)cc1C	i
Cc1ccc([N+](=O)[O-])cc1NC(=O)CN(C1CCCCC1)S(=O)(=O)c1ccc(Cl)cc1	i
COC(=O)c1c(NC(=S)Nc2cc(OC)c(Cl)cc2OC)sc2c1CCCCC2	3%
CCN(CC)CC#CC(C)(OC(C)=O)c1ccccc1 (stereo not drawn)	i
CCCc1cc2c(=O)c(-c3ccc4c(c3)OCCCO4)coc2cc1OCC(=O)OCC	0.3µg/mL*
CCOC(=O)COc1ccc(C(=O)Nc2ccc(F)cc2)cc1	<0.1µg/mL*
O=C(NC(=S)Nc1ccc2ccccc2c1)c1ccc(-c2ccccc2)cc1	0%
CC(C)NC(=S)N1CCN(Cc2c(Cl)cccc2Cl)CC1	i
COc1ccc(-c2sc(C(=O)O)cc2CC(=O)O)cc1	i
NS(=O)(=O)c1ccc(N2CCCCCC2)c([N+](=O)[O-])c1	i
COC(=O)c1ccc(C)c(NC(=O)CN(c2ccc(F)cc2)S(=O)(=O)c2ccc3c(c2)OCCO3)c1	i
CCOC(=O)c1c(NC(=O)COc2ccc(OCC)cc2)sc(C)c1C	i
Cc1ccc(SCCC(=O)NC2CCCCCC2)cc1	i
CCc1ccc(OCC(O)CN2CCN(c3ccccn3)CC2)cc1 (stereo not drawn)	1%
COC(=O)c1sc(NC(=S)Nc2ccn(C)n2)c(C(=O)OC)c1C	3%
Cc1ccc(C(C)NC(=O)c2cccnc2)cc1C (stereo not drawn)	i

The list continues.
SMILES	Mtb growth
COc1ccc(S(=O)(=O)NC2CC2)cc1Cl	i
Fc1ccc(-c2n[nH]c(=S)n2CC2CCCO2)cc1 (stereo not drawn)	i
C=CCN(CC=C)C(=O)C(C)(C)Oc1ccc(Cl)cc1	1%
O=C(c1ccccc1)c1ccc2nc(-c3ccc(NC(=O)c4ccccc4F)cc3)[nH]c2c1	5%
O=C(Nc1ccc(F)cc1)c1ccc(C#CC2(O)CCCCC2)cc1	11µg/mL*
COc1ccc(N(C(=O)c2ccncc2)S(=O)(=O)c2ccc3c4c(cccc24)C(=O)N3C)cc1	i
COc1ccc([N+](=O)[O-])cc1CSc1nnc(COc2ccccc2C)n1C	i
Cc1nc(SCC#N)c(C#N)c(C)c1C	i
O=C(OCc1ccc(Cl)cc1)c1cc(Cl)ccc1O	i
CC(=O)c1c(-c2ccccc2)c2cc(Cl)ccc2n(C)c1=O	i
FC(F)(F)c1ccccc1NC(=S)NCc1cn(-c2ccccc2)nc1-c1ccccc1	36%
COc1ccc(NC(=O)C(=O)NC2CCCCCCCCCCC2)cc1	i
Cc1ccc(C)c(S(=O)(=O)NCc2cccnc2)c1	i
N#Cc1c(C(F)(F)F)cc(-c2cccs2)nc1SCC(=O)Nc1c(F)cccc1F	i
COc1ccccc1N1CCN(C2CCN(C(=O)COc3cccc(C)c3)CC2)CC1	i
CN(CC12CC3CC(CC(C3)C1)C2)C(=O)c1ccco1	i
COc1cc(CN2CCC(C(=O)N3CCCC3)CC2)cc(OC)c1OC	1%
CCOC(=O)C1=NNC(C(=O)c2ccccc2)C1c1ccc(OC)cc1 (stereo not drawn)	i
Cc1cc2ncn(CC(O)COc3ccc(N)cc3)c2cc1C (stereo not drawn)	i
Cc1ccc(SCCC(=O)N2CCOCC2)cc1	i
CC(C)c1ccc(-c2nc3c([nH]2)c(=O)[nH]c(=O)n3C)cc1	i
Cc1ccc(S(=O)(=O)Nc2ccc(-c3ccccc3)cc2)cc1	i
O=C(c1ccco1)N1CCN(C(=S)Nc2ccc(Br)cc2Cl)CC1	i
COc1cccc(C(=O)NC(=S)Nc2cc(C(=O)O)ccc2Cl)c1	1%
Cc1cc(Cl)ccc1OCC(=O)Oc1ccccc1C	i

A draw from above in order of length of the SMILES, highest first.
SMILES	Mtb growth
O=C(c1ccccc1)c1ccc2nc(-c3ccc(NC(=O)c4ccccc4F)cc3)[nH]c2c1	5%
C=CCN(CC=C)C(=O)C(C)(C)Oc1ccc(Cl)cc1	1%
O=C(OCc1ccc(Cl)cc1)c1cc(Cl)ccc1O	i

The results go on.
SMILES	Mtb growth
COC(=O)c1cn(CC(=O)NC(C)(C)C)c2ccccc12	i
CCC1CCc2nc(SCC(=O)Nc3cccc(OC)c3)c(C#N)c(C(F)(F)F)c2C1 (stereo not drawn)	i
O=C(O)COc1ccc(S(=O)(=O)NC2CCCCC2)cc1Cl	i
CCCc1nnc(NCc2ccc(Cl)cc2)s1	i
O=C(NNC(=S)NCC1CCCO1)C1c2ccccc2Oc2ccccc21 (stereo not drawn)	i
CC(C)(C)c1ccc(OCC(=O)Nc2ccc(C#N)cc2)c(Br)c1	i
CC(C)C(=O)Nc1ccc2oc(=O)ccc2c1	4%
Cc1ccccc1C(=O)N1CCN(c2ccc(NC(=O)c3cccc4ccccc34)cc2)CC1	i
Fc1ccccc1Oc1nc(N2CCOCC2)nc(N2CCOCC2)n1	i
CC(NS(=O)(=O)c1ccc(Br)cc1)C(=O)Nc1ccccc1 (stereo not drawn)	i
Cc1nn(Cc2cccc(Oc3ccccc3)c2)c(C)c1NC(=S)Nc1ccccc1C(F)(F)F	i

Among those listed so far, 5 contain a cyano group:
SMILES	Mtb growth
COc1ccccc1Oc1ccc(C#N)c(C#N)c1	11%
Cc1nc(SCC#N)c(C#N)c(C)c1C	i
N#Cc1c(C(F)(F)F)cc(-c2cccs2)nc1SCC(=O)Nc1c(F)cccc1F	i
CCC1CCc2nc(SCC(=O)Nc3cccc(OC)c3)c(C#N)c(C(F)(F)F)c2C1 (stereo not drawn)	i
CC(C)(C)c1ccc(OCC(=O)Nc2ccc(C#N)cc2)c(Br)c1	i
